# CDC25B CDK2 inh – human CDC25B-CDK2/CyclinA binding inhibition; HTRF CDC25B-CDK2/CyclinA binding, anti-His/anti-Flag; stronger effect = higher value; z-score (test concentration not listed); hit rate 0.72% among 94,000;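 further: score is relative to mean and SD of negative controls; strong numbers were not always called active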
# TAR Tat displ – HIV-1 TAR-Tat binding disruption; hit rate 0.6% among 100,000; z-score (test concentration not listed); HIV-1 TAR RNA, Tat peptide displacement FRET; stronger effect = higher value;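 further: score is relative to mean and SD of negative controls; some compounds called inactive have numbers as strong as hits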
# Starred values were filed as active, the others as inactive; · = not tested or not shown.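 How the source made its calls: active means z-score from 3 up in half or more of its runs; inactive means the rest.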
mol | CDC25B CDK2 inh | TAR Tat displ
CCCSc1nc2c(c(=O)[nH]1)C(c1ccc(C)cc1)C(C(=O)OCC)=C(C)N2 (stereo not drawn) | -2.42 | 0.58
COc1ccc(-n2nnnc2SCC(=O)c2ccc(Cl)cc2)cc1 | -4.23 | -0.29
O=C1CC(c2ccc(Cl)cc2)Cc2nc(NCC3CCCO3)ncc21 (stereo not drawn) | 0.87 | 0.01
CCN1C(C(=O)OC)=C(OC(=O)Cc2ccccc2)c2ccccc2S1(=O)=O | -1.67 | -0.44
Cn1ncc2c(Nc3cccc(Cl)c3)nc(NCCCO)nc21 | · | 2.35
CCOC(=O)c1c(S(=O)(=O)N2CCCC(C(=O)NCc3ccc(C)o3)C2)c(C)n(CC)c1C (stereo not drawn) | · | 2.21
CCS(=O)(=O)N1CCN(c2c(C)n(C)c(=O)n(C)c2=O)CC1 | · | 0.8
Cc1ccc(C(=O)Nc2cnc3ccccn3c2=O)cc1 | 1.08 | 0.94
Cc1ccc(C)c(NC(=O)CCS(=O)(=O)c2ccc3c(c2)CC(C)N3C(=O)C2CC2)c1 (stereo not drawn) | · | -0.85
Cc1nnc(SCC#CCOC(=O)c2ccc(Br)cc2)s1 | -2.05 | 2.78
CCOCCCNC(=O)C1CCCN(c2nnc(-n3cccc3)s2)C1 (stereo not drawn) | -0.43 | 0.54
O=C(CSc1cn(CC(=O)N2CCCCC2)c2ccccc12)N1CCCCC1 | · | 5.02
O=c1[nH]nc(-c2ccc(Br)cc2)nc1Cc1ccco1 | · | 0.65
CCOC(=O)c1ccc(C#Cc2ccc3c(c2)CC(C)(C)CS3)nc1 | -1.45 | ·
c1ccc(OCCn2c(CN3CCCCC3)nc3ccccc32)cc1 | -0.3 | 0.16
O=C(CCSCc1cnn(-c2ccccc2)c1-n1cccc1)NC1CCCC1 | 0.63 | -3.52
O=C(CCc1nnc2ccc(N3CCCC3)nn12)N1CCN(c2ccccn2)CC1 | · | 0.18
CSc1ccc(C2c3c(oc4ccc(C)cc4c3=O)C(=O)N2c2ccccn2)cc1 (stereo not drawn) | -0.02 | -2.17
CCN(CC)S(=O)(=O)c1ccc2c(c1)N(CC(=O)O)C(=O)C1CCCN21 (stereo not drawn) | -0.74 | 0.56
O=C(NCCN1CCOCC1)NC1(C(F)(F)F)Oc2ccc(Cl)cc2O1 (stereo not drawn) | -0.65 | ·
Cc1ccc(-c2n[nH]c(=O)c3c2CCCC3)cc1S(=O)(=O)N(Cc1ccco1)C1CCCCC1 | 0.34 | -1.63
COC(=O)c1cc(Nc2ncnc3c2nc2n3CCCCC2)cc(C(=O)OC)c1 | -0.75 | 2.45
CCOc1ccc(-c2nc(CSc3nc4ncccc4[nH]3)c(C)o2)cc1 | · | 1.69
CC1CCC(NC(=O)c2nn(C)c3c2COc2ccccc2-3)CC1 (stereo not drawn) | -0.41 | 0.72
CCCn1c(C(O)c2cc(OC)ccc2OC)nc2ccccc21 (stereo not drawn) | 0.42 | ·
Cc1nc2nc(C)c(NS(=O)(=O)c3ccc(F)cc3)c(=O)n2[nH]1 | -0.12 | 0.03
O=S(=O)(c1ccc(Br)cc1)c1nc(-c2ccc(F)cc2)oc1NCc1cccnc1 | · | 1.99
COC(=O)c1sccc1NC(=O)N1CCCC1c1cccs1 (stereo not drawn) | -1.6 | 0.15
Cc1cc(C)n2c(Nc3ccccc3)c(-c3ccccc3)nc2n1 | -3.07 | 0.06
O=C1NC(c2ccccc2Cl)Nc2sc3c(c21)CCN(Cc1ccccc1)C3 (stereo not drawn) | -2.4 | -0.12
O=C1CC(c2ccccc2Cl)Cc2nc(N3CCc4ccccc43)ncc21 (stereo not drawn) | -1.02 | -0.15
CCN(CC)CCNS(=O)(=O)c1ccc2c(c1)NC(=O)C(C)S2 (stereo not drawn) | · | 1.18
Cn1c(=O)c2c(nc(NCCO)n2Cc2ccc(F)cc2)n(C)c1=O | -1.15 | ·
CC(C)CCNC(=O)C1CC(=O)OC12CCCCC2 (stereo not drawn) | -1.22 | ·
CCN1CCCC1CNC(=O)CCNC(=O)Cn1cnc2sc3c(c2c1=O)CCCC3 (stereo not drawn) | 2.31 | ·
COCCCNC(=O)c1oc2ccc3c(c2c1C)C(O)CC1(CCCC1)O3 (stereo not drawn) | · | 0.36
Cc1ccc(-c2noc3ncnc(NCCC(C)C)c23)cc1 | · | 0.41
Cc1ccc(-c2nc(SCc3cc(=O)c4ccc(C)c(C)c4[nH]3)n[nH]2)cc1 | · | -0.1
O=S(=O)(NCc1cccs1)c1ccc(-c2cnc(C3CC3)o2)cc1 | · | 1.28
COc1ccc2cc(CCNC(=O)c3cccs3)c(=O)[nH]c2c1 | -1.56 | ·
CCC1CCCCN1C(=O)CSc1nc2c(c(=O)[nH]1)CCC2 (stereo not drawn) | -2.77 | 0.22
CCc1ccc(NCN2C(=O)C(=O)c3ccccc32)cc1 | -0.77 | ·
CCOC(=O)c1oc2cccc(OC(C)=O)c2c1C | -0.14 | 0.55
Cc1ccc(S(=O)(=O)Nc2ccc(-c3cn4ccc(C)nc4n3)cc2)cc1 | · | 0.04
O=C(Cn1c(=O)oc2cc(S(=O)(=O)NC3CCCC3)ccc21)NCc1ccc(Cl)cc1 | -1.67 | -1.18
CCOc1ccc2[nH]cc(S(=O)(=O)c3ccc(C(C)(C)C)cc3)c(=O)c2c1 | -1.03 | 0.8
CCCCn1cc(S(=O)(=O)c2ccccc2)c(=O)c2cc(F)c(N3CCOCC3)cc21 | · | 0.56
CCCc1cc(=O)n2nc(N3CCC(C(=O)NCc4ccco4)CC3)sc2n1 | 0.27 | 2.2
Cc1ccc(C)c2[nH]c(=O)c(CCNC(=O)c3ccc(S(=O)(=O)N4CCOCC4)cc3)cc12 | -2.3 | ·
CC(C)c1nc2sc3c(NCCCN(C)C)ncnc3c2c2c1COC(C)(C)C2 | -0.4 | -6.78
CN1CC(c2nc3ccccc3[nH]2)CC1=O (stereo not drawn) | -0.8 | -0.24
CCCCOCC1CC2(CC(C)(c3csc(N)n3)OC2=O)C(=O)O1 (stereo not drawn) | -0.57 | -0.03
O=C(c1ccc(CS(=O)c2ccc(Cl)cc2)o1)N1CCOCC1 (stereo not drawn) | -0.89 | -1.02
CCOC(=O)NC(=O)c1ccc2ccccc2n1 | -1.42 | 0.75
O=C(NNc1ccc(OC(F)(F)F)cc1)C1CCCCC1 | -2.2 | ·
Cc1ccc(S(=O)(=O)N2CCN(C)CC2)cc1-c1nnc2c3ccccc3c(C)nn12 | -2.66 | 1.79

# The listing continues:
mol | CDC25B CDK2 inh | TAR Tat displ
C=CCOC(=O)C1=C(C)Nc2nc(SCC=C)[nH]c(=O)c2C1c1cccs1 (stereo not drawn) | -1.24 | -0.81
O=C(CSc1c2c(nc3ccc(Cl)cc13)CCCC2)N1CCCC1 | -7.54 | ·
CCCCN(CC)CCNC(=O)C1=C(C)C(=O)OC12CCN(S(C)(=O)=O)CC2 | · | -0.24
O=C1CSC(c2cc3ccccc3o2)N1c1ccc(F)cc1 (stereo not drawn) | -1.36 | ·
COC(=O)CNC1CC(=O)N(c2ccccc2)C1=O (stereo not drawn) | -4.08 | ·
CCCCCOC(=O)c1[nH]c2c(c1C)C(=O)C(C(=O)OC)C(C)C2 (stereo not drawn) | -1.7 | 1.6
COc1cccc(-c2cc(C(=O)O)c3ccccc3n2)c1 | -0.19 | 0.65
O=C1C=CC(=O)N1CCCCCCN1C(=O)C=CC1=O | -0.75 | ·
CN1CCN(c2nc3ccccc3c3nncn23)CC1 | · | 0.47
Clc1ccc(N2CC=CCC2)nn1 | 1.8 | 1.07
O=c1ccc(-c2ccc(S(=O)(=O)NCCN3CCOCC3)s2)n[nH]1 | · | 1.41
Cc1nc(Nc2nc3ccccc3c(=O)[nH]2)nc2c(C)cccc12 | 1.05 | 1.61
Cc1ccc(S(=O)(=O)NCc2nc3nc(C)cc(C)n3n2)c(C)c1 | -0.54 | 0.89
COc1cc(OC)cc(C(=O)Nc2nc(-c3cc([N+](=O)[O-])cs3)cs2)c1 | · | 2.73
COc1ccc(CNC(=O)c2cnn3c(C)c(Cc4cc(C)ccc4C)c(C)nc23)cc1 | -0.68 | ·
CCOC(=O)c1cc2nc(Nc3ccc(OC)cc3)sc2s1 | 0.41 | -3.94
CSc1ccc(C2c3[nH]c4ccccc4c3CCN2C(=O)c2ccncc2)cc1 (stereo not drawn) | · | 2.74
Cc1noc2ncnc(N3CCC(C(=O)N4CCN(C5CCCCC5)CC4)CC3)c12 | · | 3.1
COC(=O)C1=C(OC(=O)c2ccc(OC)cc2)c2ccccc2S(=O)(=O)N1C | -0.41 | 0.59
CCOc1ccc(-c2oc3ccc(C)cc3c(=O)c2O)cc1OC | -1.49 | 0.75
CC(NC(=O)C(=O)NCCN1CCOCC1)C(c1cccs1)N1CCOCC1 (stereo not drawn) | -0.65 | 0.78
CC(C)NCC(O)COc1ccccc1 (stereo not drawn) | -0.17 | 0.34
Cc1cc(/C=N\NC(=O)CCc2ccc(O)cc2)c2c(C)ccc(C(C)C)cc1-2 | 0.22 | ·
CC(C)c1ccc(NC(=O)NCCS(C)=O)cc1 (stereo not drawn) | 1.23 | 0.73

# Some of the entries above, reformatted.
# Below each SMILES – CDC25B CDK2 inh | TAR Tat displ
O=C(Cn1c(=O)oc2cc(S(=O)(=O)NC3CCCC3)ccc21)NCc1ccc(Cl)cc1
 : -1.67 | -1.18
COCCCNC(=O)c1oc2ccc3c(c2c1C)C(O)CC1(CCCC1)O3 (stereo not drawn)
 : · | 0.36

# Remaining list, next part:
mol | CDC25B CDK2 inh | TAR Tat displ
CCc1nn2c(=O)cc(CSc3n[nH]c(-c4ccc(OC)cc4)n3)nc2s1 | · | 0.83
CCCCOC(=O)C1=C(C)NC2=C(C(=O)CC(C)(C)C2)C1c1cccc(Cl)c1 (stereo not drawn) | -1.21 | 0.71
CC1CC(=O)Nc2cc(S(=O)(=O)N3CCC(N(C)CCCN4CCOCC4)CC3)ccc2S1 (stereo not drawn) | · | 1.2
O=c1cc2nc(-c3ccco3)nc(SCCOc3ccc(Cl)cc3)n2[nH]1 | · | -0.66
Cc1ccc(C(CNC(=O)c2oc3cc(Br)ccc3c2C)N2CCN(C)CC2)o1 (stereo not drawn) | 0.32 | -1.32
NC(=O)CNC(=O)CSc1nc2ccccc2s1 | -1.29 | ·
CSc1ccc(CCNC(=O)C2CCCN(S(=O)(=O)c3ccc4[nH]c(=O)oc4c3)C2)cc1 (stereo not drawn) | · | 0.38
COC(=O)CSc1nc(-c2cccs2)cc(-c2ccc(F)cc2)c1C#N | -1.51 | ·
COc1ccc(N2CCCS2(=O)=O)cc1NC(=O)COc1ccccc1 | · | -0.26
COc1cccc2cc(C#N)c(=N)oc12 | -0.29 | ·
Cc1cc2c(cc1S(=O)(=O)Nc1cccc(Cl)c1)OCCN2C | · | 1.33
c1ccc2[nH]c(CN3CCCCC3)nc2c1 | -0.17 | 0.86
CCc1c(C)nc(-n2nc(C)cc2C)n(CC(=O)Nc2cc(C)on2)c1=O | · | 1.49
CN1CCc2c(sc(-n3cccc3)c2CNC(=O)NC2CCCC2)C1 | · | -7.12
CCCC1=Nc2cc(C(=O)N3CCOCC3)ccc2Sc2ccc(C)cc21 | 2.39 | 0.64
Clc1ccc(Nc2ncnc3c2nc2n3CCCCC2)cc1 | · | -0.22
O=C(OCc1cc(=O)n2ccsc2n1)c1ccccc1Cl | · | 1.73
CCCN1C(=O)C(Cc2nc3ccccc3c(=O)[nH]2)c2cc(C)ccc21 (stereo not drawn) | -0.47 | 2.17
CCCNC(=O)Cn1c(=O)n(CC2CCC(C(=O)NC(C)C)CC2)c(=O)c2sccc21 (stereo not drawn) | · | 1.63
CCC(Sc1nc2ncccc2o1)C(=O)N1CCOc2ccc(C)cc21 (stereo not drawn) | · | -0.54
O=C(COc1nsnc1N1CCOCC1)Nc1ccccc1F | · | 0.1
Cc1ccc(-c2cnc(NCc3cc(Cl)ccc3O)n2C)cc1C | 0.81 | -1.35
COc1ccc2cc(S(=O)(=O)c3ccc(F)c(Cl)c3)c(=O)oc2c1 | -1.28 | ·
O=C(c1cnc2cc(-c3ccccc3)nn2c1)c1cc(F)ccc1O | -1.55 | 0.83

# One compound at a time, as listed above. Screens in order: CDC25B CDK2 inh	TAR Tat displ
# Results for `CCOC(=O)c1c(S(=O)(=O)N2CCCC(C(=O)NCc3ccc(C)o3)C2)c(C)n(CC)c1C` (stereo not drawn) : ·	2.21
# Results for `Cc1cc(/C=N\NC(=O)CCc2ccc(O)cc2)c2c(C)ccc(C(C)C)cc1-2` : 0.22	·
# Results for `CCOC(=O)c1ccc(C#Cc2ccc3c(c2)CC(C)(C)CS3)nc1` : -1.45	·
# Results for `Cn1ncc2c(Nc3cccc(Cl)c3)nc(NCCCO)nc21` : ·	2.35
# Results for `CC(C)CCNC(=O)C1CC(=O)OC12CCCCC2` (stereo not drawn) : -1.22	·

# (next part)
mol | CDC25B CDK2 inh | TAR Tat displ
CC1CCN(c2nnc(N3CCC(C)CC3)c3ccccc23)CC1 | -0.58 | ·
CCN(CC)CCn1c(NCc2ccncc2)nc2ccccc21 | -0.76 | -1.9
Fc1ccccc1CN1C2=NCCCN2c2ccccc21 | -0.68 | 0.39
O=C(Nc1nc(-c2ccccc2)ns1)c1cccnc1 | 0.86 | 0.6
Cc1ccc(-c2nc3cnccn3c2NC2CCCC2)cc1 | 0.68 | ·
O=C(CCC1=NS(=O)(=O)c2ccccc2N1)N1CCN(c2ccc(Cl)cc2)CC1 | · | 0.87
Oc1c(Cl)cc(Cl)cc1C=Nc1ccc2c(c1)COCO2 | -0.59 | ·
CN1CCN(c2cc(-c3ccccc3)ncn2)CC1 | -1.37 | -0.07
CC(C)Cn1cc(NC(=O)N(C)c2ccc(F)cc2)c2ccccc2c1=O | · | 0.02

# Random excerpt: 3 compounds from above
mol | CDC25B CDK2 inh | TAR Tat displ
CC1CCN(c2nnc(N3CCC(C)CC3)c3ccccc23)CC1 | -0.58 | ·
Cc1ccc(-c2nc3cnccn3c2NC2CCCC2)cc1 | 0.68 | ·
CN1CCN(c2cc(-c3ccccc3)ncn2)CC1 | -1.37 | -0.07

# From PubChem
